# MLL AF4-AF9 inh: MLL-AF4/AF9 protein interaction inhibition; 350,000 compounds, 0.47% hits; inhibition, % at 10 µM; AlphaScreen, biotin-AF4 peptide binding to FLAG-AF9; AID 651704;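 active = every replicate reaching a set inhibition limit, whatever the replicate mean, cut at about 25% in these data; inconclusive = mean inhibition reaches that limit but some replicates miss it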;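 also: 0% = plate neutral control median and 100% = total signal loss; the record names both 10 and 1 µM as test concentration; the first replicate is given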
# Target sequence (P42568 whole entry, looked up): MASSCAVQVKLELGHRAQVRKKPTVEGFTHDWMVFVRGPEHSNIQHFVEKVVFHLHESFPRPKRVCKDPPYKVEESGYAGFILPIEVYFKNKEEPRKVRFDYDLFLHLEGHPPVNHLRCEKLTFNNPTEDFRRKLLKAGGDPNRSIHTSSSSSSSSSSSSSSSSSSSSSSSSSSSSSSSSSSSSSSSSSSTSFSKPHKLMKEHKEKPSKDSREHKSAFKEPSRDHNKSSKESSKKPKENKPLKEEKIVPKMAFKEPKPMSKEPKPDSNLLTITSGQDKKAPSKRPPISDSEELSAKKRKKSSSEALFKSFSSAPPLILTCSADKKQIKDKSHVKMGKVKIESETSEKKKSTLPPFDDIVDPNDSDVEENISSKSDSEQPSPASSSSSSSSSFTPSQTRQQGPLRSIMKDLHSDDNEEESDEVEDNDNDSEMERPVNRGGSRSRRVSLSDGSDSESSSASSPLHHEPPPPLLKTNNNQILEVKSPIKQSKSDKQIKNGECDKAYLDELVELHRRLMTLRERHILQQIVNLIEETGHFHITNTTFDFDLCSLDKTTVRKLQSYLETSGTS
# LANA-H2B inh: blocks KSHV LANA binding to histone H2A/H2B | Q9QR71 | cell-free LANA-H2A/H2B peptide, fluorescence polarization | inhibition, % (test concentration not listed) | 320,000 compounds, 0.6% hits; in the data active = inhibition mostly above about 10%, no sharp cut-off; inactive = mostly below about 6.7%;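 also: stock transfer was 7.5 nL into about 10 µL; 0% = median of vehicle wells and 100% = median of positive control wells; one replicate is shown; the record names a cut of 25% in any replicate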
# A1 inh: inhibitors of the anti-apoptotic protein A1, read as caspase activation; MEF A1-2A-BIM cells, Caspase-Glo 3/7 luminescence, 3 h; percent of clofoctol response, vehicle zero; caspase activation, % (test concentration not listed); 330,000 compounds, 0.066% hits; AID 2462;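 active = over half of replicate activation scores above 10%, or exactly half above 10 with the replicate mean above 10; inconclusive = replicate mean below 10 yet half the replicates above 10; inactive = over half of replicates below 10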;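 also: wells of about 30 µL received 50 nL stock; many hits fall short of the cut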
# T cruzi inh: blocks replication of Trypanosoma cruzi; T. cruzi beta-gal in NIH3T3, luminescence, 90 h; inhibition, % (test concentration not listed); 300,000 compounds, 1.4% hits; AID 1885;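 active = mean inhibition across valid replicates above about 55%, limit read from the data; inconclusive = mean below that limit but half or more replicates reach it; inactive = mean below it, under half of replicates reach it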;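 also: signal also drops with host cell toxicity which is not excluded here; 0% = plate median of DMSO wells and 100% = zero luminescence signal; higher percent means less beta-gal luminescence so fewer parasites; stock transfer was 50 nL into about 50 µL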
# RanGTP-Impb inh: inhibitors of RanGTP-importin-beta interaction, primary screen, biochemical, FRET, CFP-Ran, YFP-importin-beta, homogeneous; AID 2216; 300,000 compounds, 1.1% hits; inhibition, % (concentration not given with the values); cell-free CFP-Ran/YFP-importin-beta FRET ratio;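 active = most replicates above 15%; inconclusive = exactly half above 15%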;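 also: 0% = DMSO wells and 100% = Ran loaded with GDP instead of GTP; wells of about 40 µL received 100 nL stock; the first replicate is given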
# Calb FLC: C. albicans growth modulation with fluconazole | growth inhibition, % (test concentration not listed) | AID 1979 | 300,000 compounds, 0.57% hits | C. albicans CaCi-2 (fluconazole-resistant clinical isolate) + fluconazole, Alamar Blue growth, 48 h;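 active = most replicates above 75%; inconclusive = exactly half above 75%; inactive = most below 75%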;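 also: all wells also contain fluconazole at 8 µg/ml as a sub-toxic cotreatment; 0% = median of DMSO wells and 100% = median of geldanamycin control wells; wells of about 8 µL received 7.5 nL stock; the first replicate is given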
# Beta cell apopt: beta cell apoptosis inhibition; INS-1E cytokine-induced death, ATP luminescence, 48 h; percent of positive-control rescue, neutral wells zero; protection from apoptosis, % (concentration not given with the values); 300,000 compounds, 0.8% hits; AID 435005;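 active = all replicates at 75% or more, or half of them and the mean; inconclusive = half reach 75% but not the mean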;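 also: 0% = cytokine-treated negative control wells and 100% = positive control rescue; higher means more ATP so stronger rescue from cytokine killing; wells of about 40 µL received 100 nL stock; the first replicate is given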
# Vif TR-FRET: inhibitors of Vif binding to APOBEC3G peptide, primary screen, biochemical, TR-FRET, GST-Vif 1-94, biotin-A3G peptide, dose response retest (AID 1117319); TR-FRET GST-Vif / biotin-A3G peptide binding; higher % means a stronger effect; test concentration not given here; strong numbers were not always called active; inhibition, %; hits with a dose series show IC50 in µM; 260,000 compounds, 0.57% hits;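 active = above the screen mean plus three standard deviations and confirmed in dose response; inconclusive = results disagree or hit not tested in dose response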;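 also: Vif residues 1-94 fused to GST binding biotinylated APOBEC3G peptide 110-148; 0% = full assay without inhibitor and 100% = GST in place of GST-Vif; retest series ran down from 100 µM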
# Numbers without * were called inactive; i = inactive; u = inconclusive; x = no result given; & = joins results of further samples.
SMILES,MLL AF4-AF9 inh,LANA-H2B inh,A1 inh,T cruzi inh,RanGTP-Impb inh,Calb FLC,Beta cell apopt,Vif TR-FRET
NS(=O)(=O)c1ccc(CCNC(=O)C2CCCO2)cc1 (stereo not drawn),-1.8,5.0,1.8,-8,5.1,-22,-7,x
CCOP(=O)(OCC)c1nc(Cc2ccccc2)oc1NCc1ccccc1,x,-3.5,1.1,24,1.6,1,1,x
CCN(CC(=O)Nc1c(F)cccc1F)C(=O)c1ccccn1,0.8,1.6,-0.6,x,x,x,1,-5%
Cc1ccccc1OCC(=O)OCC(=O)NCC1CCCCC1,-4.3,1.3,-0.8,x,x,x,1,x
COc1ccc(CCNC(=O)c2ccc(N(C)S(=O)(=O)c3ccccc3)cc2)cc1,5.3,0.3,-0.1,9,-0.1,4,1,1%
CCOC(=O)C(NC(=O)c1ccccc1OCC)(Nc1ncccn1)C(F)(F)F (stereo not drawn),x,1.1,-0.9,x,-3.3,18,-5,-1%
Cc1ccc(C(=O)NCCC(=O)NCc2ccco2)cc1,-1.6,9.9,-0.4,-4,-4.2,1,0,-8%
O=C(C1COc2ccccc2O1)N1CCCC1 (stereo not drawn),x,-6.0,0.0,-23,-6.4,-12,-3,-4%
Cc1ccc(-c2csc(NC(=O)/C=C/c3cccs3)n2)cc1C,5.1,2.0,0.3,-19,u,4,-2,x
CSc1ncc(C(=O)Nc2ccccc2)cn1,-0.8,0.8,-0.7,0,-2.6,5,2,x
COc1ccccc1NC(=O)CSc1nnc(CC(=O)Nc2ccccc2)n1C,x,2.8,0.2,-6,3.2,5,-5,-1%
Cc1cccc2cc3c(NC(=O)CC(C)C)nn(C)c3nc12,x,3.8,0.6,9,9.8,u,1,u
O/C(=C\Sc1nnc(Cc2ccccc2)o1)c1ccc(F)cc1,x,0.5,-0.1,14,-0.5,-6,2,-5%
O=C(CN(C(=O)c1csnn1)c1cccc2ccccc12)NC1CCCC1,0.8,3.0,0.6,-7,8.7,6,-10,-7%
CCOc1cc(C)c(-c2onc(C(F)(F)F)c2-c2csc(C)n2)c(O)c1,14,10.0,-0.5,10,u,-3,17,-7%
O=C1c2nc3cc(-c4ccccc4)[nH]n3c(=O)c2CN1Cc1ccccc1,x,4.8,0.2,-15,-7.4,-1,-3,u
CC(C)NC(=O)C1CCN(C(=O)N(C)C)CC1,x,-5.8,0.1,3,-2.2,4,5,-2%
NCCCC[C@@H]1NC(=O)c2cc([N+](=O)[O-])cc(I)c2SC[C@@H](C(N)=O)NC(=O)[C@H](Cc2ccc(O)cc2)NC1=O,x,-2.9,-1.2,12,2.9,13,2,23%
CCOc1c(C#N)c(C#N)c2nc(C)cc(C)n12,x,1.0,-0.4,-2,-19,-12,-2,5%
CC(C)CC(=O)NC(=S)N1CCN(c2ccc([N+](=O)[O-])cc2Cl)CC1,6.8,-1.8,-0.3,53,3.5,4,-1,-5%
COc1ccc(-n2nc(C(=O)NCC(=O)N(C)Cc3ccccc3)c3ccccc3c2=O)cc1OC,4.0,5.2,-0.4,4,-1.5,6,-3,x
O=C(c1ccc([N+](=O)[O-])s1)N1CCN(c2ccccn2)CC1,1.3,10,-0.8,34,1.1,0,5,1%
CCCc1nc2c(o1)CC(CC(C)SCC)CC2=O (stereo not drawn),x,-9.3,-0.3,-8,-0.2,-22,-3,u
CCC(C)/C(C)=N/NC(=O)c1cn(-c2ccccc2)nc1-c1ccccc1 (stereo not drawn),x,5.0,-0.4,-9,0.1,11,2,x

# Entries of single compounds from above. Order of screens: MLL AF4-AF9 inh, LANA-H2B inh, A1 inh, T cruzi inh, RanGTP-Impb inh, Calb FLC, Beta cell apopt, Vif TR-FRET
# CC(C)CC(=O)NC(=S)N1CCN(c2ccc([N+](=O)[O-])cc2Cl)CC1 as listed: 6.8, -1.8, -0.3, 53, 3.5, 4, -1, -5%
# CCOc1c(C#N)c(C#N)c2nc(C)cc(C)n12 as listed: x, 1.0, -0.4, -2, -19, -12, -2, 5%
# CCOc1cc(C)c(-c2onc(C(F)(F)F)c2-c2csc(C)n2)c(O)c1 as listed: 14, 10.0, -0.5, 10, u, -3, 17, -7%

# (further entries)
SMILES,MLL AF4-AF9 inh,LANA-H2B inh,A1 inh,T cruzi inh,RanGTP-Impb inh,Calb FLC,Beta cell apopt,Vif TR-FRET
COc1ccc(/C=N/n2c(-c3ccco3)nc3ccccc3c2=O)cc1,x,0.1,-0.4,8,-2.3,10,-9,8%
Cc1ccc(NC(=O)CN(C)C(=O)CSc2nnc(C(F)(F)F)n2C)cc1,0.8,x,0.1,-2,1.4,4,-2,4%
CCN(CC)S(=O)(=O)c1ccc(C(=O)NCCOC(=O)c2ccc(F)cc2F)cc1,-2.4,1.1,1.3,-8,-1.0,3,x,x
COc1ccc(-n2nnnc2CNC(=O)c2ccc3ccccc3c2)cc1,8.9,0.7,1.0,-3,3.8,-29,6,x
O=C(Nc1ccnn1C1CCN(CC2CC=CCC2)CC1)c1ccccc1 (stereo not drawn),-6.0,x,x,11,u,-24,x,x
c1ccc(COc2cncc(-c3cccnc3)c2)cc1,-0.4,6.0,0.8,x,x,x,-4,x
Cc1ccc(NC(=O)c2ccc(CNc3c(N4CCOCC4)c(=O)c3=O)cc2)cc1,6.3,-2.3,0.4,-18,-2.7,-3,-3,3%
Cn1nc(C(F)(F)F)c(-c2ccc(Br)cc2)c1NC(=O)C1CCC1C(=O)O (stereo not drawn),-1.1,0.2,0.2,-15,2.5,-2,-5,-1%
Cc1cc(C(C)(C)C)ccc1OCCn1ccnc1,x,-3.1,-0.8,11,-4.3,-2,9,u
O=C(COC(=O)[C@@H]1CCCN1C(=O)c1cccs1)NCCc1ccccc1,x,2.9,0.1,-19,-1.7,-3,-4,26%
Cc1cc(C)c2ccc3c(C)c(C)nc3c2[nH]1,0.3,-0.1,0.0,x,x,-35,-3,-9%
Nc1ccccc1NC1=CC(=O)CC(c2ccccc2)C1 (stereo not drawn),x,0.5,-0.7,-16,-3.5,-2,-3,u
O=C(CN1C(=O)CC(c2ccccc2)=Nc2ccccc21)NCc1ccccc1,x,8.2,1.0,10,1.4,-7,4,4%
CC(=O)c1cccc(NC(=S)N2CCN(S(=O)(=O)c3ccccc3)CC2)c1,3.1,1.6,1.4,-11,0.3,-1,-2,x
O=C(CNc1cccc([N+](=O)[O-])c1)NC(=O)NC1CCCCC1,7.6,-4.5,0.9,x,x,x,3,-5%
Cc1cccc(NC(=O)c2cnn(-c3ccc(F)cc3)c2C2CCNCC2)c1C,2.1,i,0.0,-7,-2.7,7,-6,14%
CCOC(=O)c1sc(NC(=O)COC(=O)CNC(=O)c2ccco2)c(C(=O)OCC)c1C,7.8,-1.1,0.3,2,4.1,u,3,-13%
O=C(Nc1ccncc1)c1cccc(S(=O)(=O)N2CCN(c3ccc(F)cc3)CC2)c1,-10,-14,0.3,58*,-1.9,-2,3,-4%
O=C(NCc1cc2ccccc2[nH]1)C1CCC(=O)N(CCCN2CCCC2=O)C1 (stereo not drawn),2.5,4.6,-0.1,2,2.9,15,-1,x
COc1ccc(NC(=O)CC(=O)Nc2ccc(OC)cc2OC)c(OC)c1,x,0.4,-0.1,6,-8.3,u,-11,4%
CC(C)C(=O)Nc1ccc2c(c1)nc(CCN1CCN(c3ccccn3)CC1)n2C,-1.4,-2.8,0.2,-15,5.2,37,-4,5%
CSCCC(NC(N)=O)C(=O)NCc1ccc(Cl)cc1 (stereo not drawn),x,2.3,-0.4,2,5.0,2,1,73%
COc1ccc(OC)c(NC(=O)CCc2nnc3ccc(N4CCC(C)CC4)nn23)c1,2.6,8.6,-0.2,9,u,u,0,-2%
O=C(NC(CO)Cc1ccccc1)c1ccccc1 (stereo not drawn),-1.4,-2.8,0.6,-25,-0.1,3,5,-2%

# Some of these compounds in order of the MLL AF4-AF9 inh value, rising.
Structure,MLL AF4-AF9 inh
O=C(Nc1ccncc1)c1cccc(S(=O)(=O)N2CCN(c3ccc(F)cc3)CC2)c1,-10
O=C(NCc1cc2ccccc2[nH]1)C1CCC(=O)N(CCCN2CCCC2=O)C1 (stereo not drawn),2.5
COc1ccc(OC)c(NC(=O)CCc2nnc3ccc(N4CCC(C)CC4)nn23)c1,2.6

# Additional entries follow:
SMILES,MLL AF4-AF9 inh,LANA-H2B inh,A1 inh,T cruzi inh,RanGTP-Impb inh,Calb FLC,Beta cell apopt,Vif TR-FRET
Cc1cc2cc(C)c3nnc(SCC(=O)NCc4ccc5c(c4)OCO5)n3c2cc1C,x,-0.7,0.4,17,-1.2,-20,-7,1%
COc1ccc(CC(=O)NCc2nnc(SCC(=O)Nc3ccc(OC)cc3)n2C)cc1,-1.1,-0.2,-0.5,1,5.4,0,-4,7%
O=C(O)CC1CCCC(c2ccccc2)C1=O (stereo not drawn),x,-0.6,-0.2,-10,u,5,x,9%
CCCOc1cccc(C(=O)NC(=S)Nc2cccc(C(F)(F)F)c2)c1,-47,-7.6,-0.9,24,-4.6,-27,0,1%
CCS(=O)(=O)n1nc(-c2ccc(OC)cc2)nc1SC,x,-2.3,-3.8,-11,-1.3,-2,5,9%
CCn1c(SCC(=O)N2CCCc3ccccc32)nnc1-c1c[nH]c2ccccc12,x,-0.7,-0.2,x,-0.7,3,-1,-4%
CCCCN(CC(=O)NCc1ccc(F)cc1)C(=O)c1ccco1,-1.4,-2.3,-0.4,-2,0.0,2,-1,x
COc1ccc(CNS(=O)(=O)c2ccc(Br)s2)cc1,1.7,0.9,-2.4,-3,0.2,5,-1,-3%
C=C(Cl)COc1ccc2c(CCCC)cc(=O)oc2c1,x,-1.1,0.7,20,-0.3,-1,4,3%
CCOc1ccc(CCNC(=O)CCNS(=O)(=O)c2ccc3c(c2)CCN3C(C)=O)cc1OCC,-0.7,-2.9,-0.2,2,-1.0,5,0,x
COc1cc(OC)cc(C(=O)OCC(=O)Nc2ccc(F)cc2F)c1,1.9,3.7,-0.5,2,-1.6,-31,-3,-3%
C[C@@H]1CN([C@H](C)CO)C(=O)c2cc(NC(=O)Cc3ccccc3)ccc2O[C@H]1CN(C)Cc1ccc(Oc2ccccc2)cc1,0.4&5.6,5.4,0.4,x,x,x,16,x
Cc1cc(C)c(C#N)c(SCc2nc3ccccc3[nH]2)n1,x,3.9,-0.2,-20,19*,7,-5,u
O=c1c2c(nc3cc(-c4ccc(Cl)cc4)[nH]n13)CCS2,x,7.4,-0.7,-7,-6.3,18,1,-5%
COCCOc1cc(COC)nc(-c2cccc(C)c2)n1,-2.2,-5.3,-0.4,x,2.0,-17,0,x
COc1cccc2sc(N(CCCN(C)C)C(=O)c3ccc(S(=O)(=O)N4CCCc5ccccc54)cc3)nc12,36*,-3.7,-0.1,17,0.7,3,9,-4%
O=C(NCC1CCCN(Cc2nccs2)C1)c1cccc2ccccc12 (stereo not drawn),0.5,-0.8,0.2,5,-3.2,3,x,0%
COc1ccc(OC)c(S(=O)(=O)NCCCc2ccccc2)c1,-2.6,3.0,1.0,1,0.5,28,-5,-1%
Cc1cccn2c(=O)c(/C=C(\C#N)C(=O)NCc3ccco3)c(N3CCCCC3)nc12,3.2,0.4,0.5,12,2.2,1,13,-10%
COc1ccccc1-c1nc(-c2ccc(C(=O)O)cc2)no1,-5.5,-0.1,2.0,-8,-0.5,6,0,x
